# ID4 binder = binds human ID4 protein on microarray | AID 624137 | calls only | small molecule microarray, Flag-ID4 binding, fluorescence F/B | 31,000 tested, 1.2% active | P47928;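 active = spot signal over background at p below 0.07 in all four prints; compounds were printed on slides so no solution concentration is given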;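 also: a binder raises fluorescence above local background on the spot; about 2 pmol printed per array spot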
# Target sequence (P47928 whole entry, looked up): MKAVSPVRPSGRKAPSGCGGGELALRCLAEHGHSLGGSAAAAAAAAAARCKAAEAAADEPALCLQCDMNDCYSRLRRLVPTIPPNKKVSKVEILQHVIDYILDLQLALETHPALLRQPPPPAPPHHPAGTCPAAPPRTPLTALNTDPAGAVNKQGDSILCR
# Calls only; i = inactive; + = active, no number. Some of the compounds tested (hit frequency here may not be typical).
compound	ID4 binder
C[C@@H]1CN([C@@H](C)CO)S(=O)(=O)c2ccc(C#C[C@@H](C)O)cc2O[C@H]1CN(C)Cc1ccccn1	i
O=C(COc1ccccc1Br)NCc1cccnc1	i
C/C=C/c1ccc2c(c1)O[C@H](CN(C)S(=O)(=O)c1ccccc1OC)[C@H](C)CN([C@@H](C)CO)S2(=O)=O	+
O=C(C[C@@H]1CC[C@@H](NC(=O)C2CC2)[C@@H](CO)O1)Nc1ccccc1	i
O=C(NCC[C@H]1CC[C@@H](NC(=O)C2CCCC2)[C@@H](CO)O1)c1ccc(F)cc1	i
Cc1ccc(-c2nc3ncccc3o2)cc1NC(=O)COc1ccc(Br)cc1	i
Cn1c(SCC(=O)c2ccc(Br)cc2)nnc1-c1cc2ccccc2o1	i
c1ccc(-c2cc3c(NCC4CCCO4)ncnc3s2)cc1 (centres undefined)	i

# The results go on.
compound	ID4 binder
COc1ccc(-c2cnc3c(c2)C(=O)N([C@@H](C)CO)C[C@H](C)[C@@H](CN(C)Cc2ccccn2)O3)cc1	i
COc1ccc(S(=O)(=O)N(C)CC(=O)Nc2ccc(Br)cc2F)cc1C	i
O=C(O)c1ccc(C(Nc2ccccn2)c2cc(Cl)c3cccnc3c2O)cc1 (centres undefined)	i
COc1ccc(C(=O)Nc2cccc(C(=O)NCc3ccco3)c2)cc1	i
C[C@H]1CN([C@@H](C)CO)S(=O)(=O)c2ccc(C#CC3(O)CCCC3)cc2O[C@H]1CN(C)C(=O)c1ccncc1	i
CCOc1ccc(NC(=O)Cn2cnc3sc(C(N)=O)c(C)c3c2=O)cc1	i
CN(CC(=O)Nc1ccccc1F)S(=O)(=O)c1ccc2ccccc2c1	i
c1csc(-c2nn3c(Cn4cnc5ccccc54)nnc3s2)c1	i

# The list goes on:
compound	ID4 binder
C[C@@H]1CN([C@@H](C)CO)C(=O)Cc2cc(NC(=O)C3CCCCC3)ccc2O[C@@H]1CN(C)C	i
CNC[C@@H]1Oc2ncc(Br)cc2C(=O)N([C@H](C)CO)C[C@H]1C	i
Cc1nn(CC(O)Cn2cnc3c2c(=O)n(C)c(=O)n3C)c(C)c1Br (centres undefined)	i
C[C@@H]1CN([C@@H](C)CO)C(=O)c2cc(NC(=O)C3CC3)ccc2O[C@@H]1CN(C)Cc1ccccc1	i
CC(C)CC#Cc1cnc2c(c1)C(=O)N([C@@H](C)CO)C[C@@H](C)[C@H](CN(C)C(=O)c1ccccc1)O2	i
Nc1ncnc2c1ncn2C1CCCO1 (centres undefined)	i
CC(NS(=O)(=O)c1ccc(Br)cc1)C(=O)Nc1cccc([N+](=O)[O-])c1 (centres undefined)	i
C[C@H]1CN([C@@H](C)CO)C(=O)c2cc(C#Cc3ccccn3)cnc2O[C@@H]1CN(C)CC1CCCC1	i

# Later entries:
compound	ID4 binder
CCOc1ccc2nc(SCC(=O)Nc3cccc(C)c3C)sc2c1	i
Cc1c(Br)c([N+](=O)[O-])nn1C(C)C(=O)Nc1ccccc1C(F)(F)F (centres undefined)	i
O=C(CSc1ncnc2sc(-c3ccccc3)cc12)Nc1ccccc1C(F)(F)F	i
C[C@H]1CN([C@@H](C)CO)C(=O)Cc2cc(NC(=O)C3CC3)ccc2O[C@@H]1CN(C)CC1CCCCC1	i
COc1ccccc1-c1cnc2c(c1)C(=O)N([C@H](C)CO)C[C@@H](C)[C@@H](CN(C)CC1CCOCC1)O2	i
CCOC(=O)c1c(NC(=O)c2nc3ncccn3n2)sc2c1CCC(C)C2 (centres undefined)	i
CCC(=O)N[C@@H]1C=C[C@H](CC(=O)NCC2CCCCC2)O[C@@H]1CO	i
CN1CCN(NC(=O)CN2C(=O)S/C(=C/c3ccc(Cl)cc3)C2=O)CC1	i

# Additional structures follow:
compound	ID4 binder
O=C(Oc1c(CN2CCOCC2)cc(Cl)c2cccnc12)c1ccc(F)cc1	i
C[C@@H]1CN([C@H](C)CO)S(=O)(=O)c2ccc(C#Cc3ccc(F)cc3)cc2O[C@@H]1CN(C)C	i
C=CCn1c(=S)sc2c(SCC(N)=O)ncnc21	i
O=C(CC1c2ccccc2Oc2ccccc21)Nc1ccc(Cc2ccncc2)cc1	i
O=C(OCc1cccc(C(=O)c2ccccc2)c1)c1ccc(NC(=O)c2ccco2)cc1	i
CCc1ccc(NC(=O)CSc2nc(-c3ccc(OC)cc3)cc(=O)[nH]2)cc1	i
O=C(Nc1ccc(S(=O)(=O)Nc2ncccn2)cc1)c1ccc(-c2ccccc2)cc1	i
C[C@@H](NC(=O)C[C@H]1CC[C@@H](NC(=O)c2cccnc2)[C@H](CO)O1)c1ccccc1	i

# The listing continues.
compound	ID4 binder
COc1ccc(NC(=O)CSc2nc3ccccc3n2-c2ccccc2)c([N+](=O)[O-])c1	i
COc1ccc([N+](=O)[O-])cc1NC(=O)CSc1nncn1C	i
Cc1ccc(C2=NC3(CCN(C(=O)OC(C)(C)C)CC3)NC2=S)cc1	i
O=C(NC1CCCCC1)N[C@H]1CC[C@H](CC(=O)N2CCOCC2)O[C@@H]1CO	i
C[C@H]1CN([C@@H](C)CO)C(=O)c2cc(C#CCN(C)C)cnc2O[C@H]1CN(C)S(=O)(=O)c1cn(C)cn1	i
CC(=O)N(c1ccc2oc3c(c2c1)CCCC3)S(=O)(=O)c1cccc2cccnc12	i
C[C@H]1CN([C@@H](C)CO)C(=O)c2cc(C3=CCCC3)cnc2O[C@@H]1CN(C)Cc1ccc(F)cc1	i
CCC(=O)Nc1ccc2c(c1)C(=O)N(C)C[C@@H](OC)[C@H](C)CN[C@H](C)CO2	i

# (list continues)
compound	ID4 binder
CC(=O)N(C)C[C@H]1Oc2ncc(-c3ccccc3F)cc2C(=O)N([C@@H](C)CO)C[C@H]1C	i
COc1ccc(Cl)cc1N(CC(=O)Nc1cc(Cl)ccc1Cl)S(C)(=O)=O	i
CNC[C@H]1Oc2cc(-c3cccc(F)c3)ccc2S(=O)(=O)N([C@H](C)CO)C[C@@H]1C	i
C[C@@H](O)C#Cc1ccc2c(c1)O[C@@H](CN(C)C(=O)c1ccncc1)[C@@H](C)CN([C@@H](C)CO)S2(=O)=O	i
Cc1ccc(-c2nc3ccccc3[nH]2)cc1NC(=O)COc1ccc(C(C)C)cc1	i
O=C(O)CCN1C(=O)c2ccc(NC(=O)c3cccs3)cc2C1=O	i
Cc1ccccc1-c1ccc2c(c1)O[C@H](CN(C)C(=O)Nc1ccc(C(F)(F)F)cc1)[C@@H](C)CN([C@H](C)CO)S2(=O)=O	i
Cc1sc2nc(SCc3n[nH]c(=S)n3-c3ccccc3)[nH]c(=O)c2c1C	i

# Shown as labelled records: part of the list above.
> COc1ccc(Cl)cc1N(CC(=O)Nc1cc(Cl)ccc1Cl)S(C)(=O)=O
- ID4 binder = i

> C[C@@H](O)C#Cc1ccc2c(c1)O[C@@H](CN(C)C(=O)c1ccncc1)[C@@H](C)CN([C@@H](C)CO)S2(=O)=O
- ID4 binder = i

> Cc1ccc(-c2nc3ccccc3[nH]2)cc1NC(=O)COc1ccc(C(C)C)cc1
- ID4 binder = i

# (further entries)
compound	ID4 binder
O=C(CSc1nnc(-c2ccncc2)o1)Nc1ccccc1F	i
C[C@H](CO)N1C[C@H](C)[C@H](CN(C)Cc2ccccn2)Oc2ncc(C#Cc3ccccc3)cc2C1=O	i
COc1cc(OC)c(NC(=O)CCN2C(=O)c3ccccc3C2=O)cc1Cl	i
Cc1ccc(C(=O)c2ccc(CC(=O)O)n2C)cc1	i
CCCCn1c2ccccc2c2nnc(SCC(=O)c3ccccc3)nc21	i
COc1ccc([N+](=O)[O-])cc1NC(=O)C(C)N(c1ccc(C)cc1)S(C)(=O)=O (centres undefined)	i
Nc1cc(=O)nc(SCC(=O)N(c2ccccc2)c2ccccc2)n1-c1ccccc1	i
Cc1nnc(SCC(=O)Nc2cccc([N+](=O)[O-])c2)s1	i

# Remaining list, next part
compound	ID4 binder
O=C(C[C@@H]1C=C[C@H](NC(=O)CC2CC2)[C@H](CO)O1)NCC(F)(F)F	i
C[C@H](NC(=O)C[C@H]1C[C@H]2c3cc(N(C)C)ccc3O[C@H]2[C@@H](CO)O1)c1ccccc1	i
COC(=O)c1ccccc1NC(=O)CSc1nc(-c2cccs2)cc(C(F)(F)F)c1C#N	i
CCOC(=O)c1c(NC(=O)c2ccc(Cl)c(S(=O)(=O)N3CCOCC3)c2)sc2c1CCCC2	i
O=C(C[C@@H]1CC[C@H](NC(=O)CCN2CCCCC2)[C@@H](CO)O1)Nc1nccs1	i
O=c1[nH]c(CSc2ccccn2)nc2c1oc1ccccc12	i
COCC(=O)Nc1ccc2c(c1)[C@@H]1C[C@H](CC(=O)N[C@H](C)c3ccccc3)O[C@H](CO)[C@@H]1O2	i
OCCCNc1ncnc2scc(-c3ccccc3)c12	i

# Continuation.
compound	ID4 binder
Cc1ccc(NC(=O)CSc2n[nH]c(-c3ccncc3)n2)cc1C	i
CC(=O)N[C@@H](CC(C)C)C(=O)O	i
O=C(C[C@@H]1CC[C@@H](NC(=O)C2CC2)[C@H](CO)O1)NCc1ccccc1Cl	i
CC(=O)N(C)C[C@@H]1Oc2cc(C#CCC(C)C)ccc2S(=O)(=O)N([C@H](C)CO)C[C@H]1C	i
CC(C)C#Cc1cnc2c(c1)C(=O)N([C@@H](C)CO)C[C@@H](C)[C@H](CN(C)Cc1ccc3c(c1)OCO3)O2	i
CCCN(C)C[C@H]1Oc2ncc(-c3cccnc3)cc2C(=O)N([C@H](C)CO)C[C@H]1C	i
CC(=O)Nc1ccc(S(=O)(=O)NC2(C(F)(F)F)C(=O)N(c3ccc(C(C)C)cc3)C(C)=C2C(C)=O)cc1 (centres undefined)	i
CCOC(=O)c1c(NC(=O)COc2cc(C)ccc2C)sc2c1CCC2	i

# Going on with the list.
compound	ID4 binder
C[C@@H]1O[C@@H](O[C@@H]2[C@@H](O)[C@H](Oc3c(-c4ccc(O)cc4)oc4cc(O)cc(O)c4c3=O)O[C@H](CO)[C@H]2O)[C@H](O)[C@H](O)[C@H]1O	i
C[C@H]1CN([C@@H](C)CO)C(=O)c2ccccc2-c2ccccc2CO[C@H]1CN(C)C(=O)[C@@H]1CCCN1C	i
CC(C)c1ccc(NC(=O)Cn2cc([N+](=O)[O-])cn2)cc1	i
CC(C)C#Cc1ccc2c(c1)O[C@H](CN(C)C)[C@H](C)CN([C@H](C)CO)S2(=O)=O	i
C[C@@H]1CN([C@H](C)CO)C(=O)c2cc(C#CC3CCCC3)cnc2O[C@H]1CN(C)S(C)(=O)=O	i
COc1cc2c(cc1NC(=O)COc1ccc([N+](=O)[O-])cc1)oc1ccccc12	i
O=C(CSc1nc2cc(Cl)ccc2s1)Nc1ccc2c(c1)OCCO2	i
COCC(=O)N[C@H]1C=C[C@@H](CC(=O)N2CCCCC2)O[C@@H]1CO	i

# More structures
compound	ID4 binder
CN(CC(=O)Nc1ccccc1C(=O)N1CCCC1)S(=O)(=O)c1ccc(Cl)cc1	i
COc1ccc(C)cc1N(CC(=O)Nc1ccc(I)cc1C)S(C)(=O)=O	i
O=C(N1CCOCC1)[C@@]1(Cc2ccccc2)N=C(c2ccc(OCCCO)cc2)O[C@H]1c1ccccc1	i
COC(=O)c1ccc(NC(=O)C2CCN(S(=O)(=O)c3cc(C)ccc3OC)CC2)cc1	i
O=C(O)COc1ccc(NC(=O)c2ccc(NC(=O)c3ccco3)cc2)cc1	+
CN(C)c1ccc2c(c1)[C@@H]1C[C@@H](CC(=O)N3CCOCC3)O[C@@H](CO)[C@@H]1O2	i
Cc1ccccc1-c1cnc2c(c1)C(=O)N([C@@H](C)CO)C[C@@H](C)[C@H](CN(C)C(=O)CC1CC1)O2	i
C[C@H](CO)N1C[C@H](C)[C@H](CN(C)C(=O)C2CC2)Oc2ncc(C#Cc3ccccc3F)cc2C1=O	i

# (more compounds)
compound	ID4 binder
CNC[C@@H]1Oc2cc(C#CC(C)C)ccc2S(=O)(=O)N([C@@H](C)CO)C[C@H]1C	i
CO[C@@H](CN(C)C(=O)C1CCOCC1)[C@@H](C)CN(C(=O)Nc1ccc(C(F)(F)F)cc1)[C@H](C)CO	i
COc1ccccc1NC(=O)N[C@@H]1C=C[C@H](CC(=O)N[C@@H](C)c2ccccc2)O[C@H]1CO	i
CCc1cccc(OCC(=O)Nc2ccccc2C(N)=O)c1	i
C[C@H]1CN([C@@H](C)CO)C(=O)c2ccccc2-c2ccccc2CO[C@H]1CN(C)C(=O)C1CC1	i
Cc1cccc(-n2c(N)cc(=O)nc2SCC(=O)Nc2ccc3ccccc3c2)c1	i
COc1ccc(C(=O)CSc2nnc(-c3ccccc3Cl)n2C)cc1OC	i
Cc1ccc(N(C(C)C(=O)Nc2ccc3c(c2)OCCO3)S(C)(=O)=O)cc1 (centres undefined)	i

# (next part)
compound	ID4 binder
C[C@H](CO)N1C[C@H](C)[C@@H](CN(C)CC2CCCC2)Oc2cc(C3=CCCCC3)ccc2S1(=O)=O	i
Cc1ccc(NC(=O)CC2Sc3ccc(C(F)(F)F)cc3NC2=O)c([N+](=O)[O-])c1 (centres undefined)	i
O=C(c1cccc(S(=O)(=O)N2CCOCC2)c1)N(Cc1ccccc1)c1ccccn1	i
C[C@H]1CN([C@@H](C)CO)S(=O)(=O)c2ccc(Br)cc2O[C@H]1CN(C)C	i
COc1ccc([N+](=O)[O-])cc1NC(=O)COc1ccc(C(C)(C)C)cc1	i
O=C(CC1CC1)Nc1ccc2c(c1)[C@H]1C[C@H](CC(=O)N3CCCCC3)O[C@H](CO)[C@H]1O2	i

# Random excerpt: 5 entries already listed.
compound	ID4 binder
O=C(CSc1nc2cc(Cl)ccc2s1)Nc1ccc2c(c1)OCCO2	i
CCOc1ccc(NC(=O)Cn2cnc3sc(C(N)=O)c(C)c3c2=O)cc1	i
CNC[C@@H]1Oc2ncc(Br)cc2C(=O)N([C@H](C)CO)C[C@H]1C	i
CCc1cccc(OCC(=O)Nc2ccccc2C(N)=O)c1	i
CCCCn1c2ccccc2c2nnc(SCC(=O)c3ccccc3)nc21	i
